Screens (PubChem BioAssay)
HNF4A DNA FP: change in binding of human HNF4 alpha to DNA; activity change, % at 10 µM; P41235; actives 0.3% (n = 360,000); HNF4a-FITC DNA binding, fluorescence polarization, 1 h; in the data active means activity change above about 30%, passing the limit was not always enough;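 further: controls were the assay level and a saturating level of protein; the project sought stronger binding though the title names inhibitors; some compounds called inactive have numbers as strong as hits; positive values seem to mean higher polarization but the record does not say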
Target sequence (P41235 whole entry, looked up): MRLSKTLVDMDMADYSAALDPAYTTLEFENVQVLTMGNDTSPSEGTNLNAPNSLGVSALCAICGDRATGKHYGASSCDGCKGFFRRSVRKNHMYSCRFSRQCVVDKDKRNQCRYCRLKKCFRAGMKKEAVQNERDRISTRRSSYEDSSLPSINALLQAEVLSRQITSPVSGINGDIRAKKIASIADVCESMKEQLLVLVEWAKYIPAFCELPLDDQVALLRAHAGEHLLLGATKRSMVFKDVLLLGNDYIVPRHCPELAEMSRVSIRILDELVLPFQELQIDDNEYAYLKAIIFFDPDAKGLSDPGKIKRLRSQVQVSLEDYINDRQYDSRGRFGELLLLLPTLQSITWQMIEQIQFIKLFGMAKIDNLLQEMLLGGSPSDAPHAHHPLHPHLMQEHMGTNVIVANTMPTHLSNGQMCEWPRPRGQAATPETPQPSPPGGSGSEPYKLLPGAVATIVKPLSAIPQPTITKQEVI
B2AR ag: agonists of human beta-2 adrenergic receptor inducing internalization | AID 504454 | P07550 | actives 0.43% (n = 340,000) | response, % (concentration not given with the values) | Am2.2-beta2AR cells, FAP receptor internalization, flow cytometry; reference of the scale not given here;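 active means response above a set limit, near 3 SD of response in nonfluorescent compounds, cut at about 42% in these data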;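 further: stock transfer was 100 nL into about 11 µL; a reference agonist was the positive control; negative values mostly stem from fluorescent compounds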
ALR H2O2 inh: inhibitors of human sulfhydryl oxidase ALR | P55789 | inhibition, % (test concentration not listed) | purified ALR, DTT oxidation, H2O2 HRP-luminol luminescence | AID 485317 | actives 3.8% (n = 290,000);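 active means mean and each replicate at 75% or more; inconclusive means only one of the two met; inactive means neither met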;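 further: stock transfer was 7.5 nL into about 7.5 µL; 0% = neutral wells and 100% = wells with inactivated enzyme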
LANA-H2B inh: blocks KSHV LANA binding to histone H2A/H2B; inhibition, % (test concentration not listed); Q9QR71; cell-free LANA-H2A/H2B peptide, fluorescence polarization; AID 2629; actives 0.6% (n = 320,000); in the data active means inhibition mostly above about 10%, no sharp cut-off; inactive means mostly below about 6.7%;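 further: stock transfer was 7.5 nL into about 10 µL; 0% = median of vehicle wells and 100% = median of positive control wells; one replicate is shown; the record names a cut of 25% in any replicate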
Ecoli growth: E. coli growth inhibition; Escherichia coli growth, OD600, 23 h; active compounds read low; OD600 absorbance (test concentration not listed); actives 0.21% (n = 330,000);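 active means OD600 absorbance below the run mean of sample wells minus 3.6 SD, in any replicate, cut at about 0.56 in these data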;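 further: stock transfer was 300 nL into about 60 µL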
FGF22 binding: FGF22 (human) thermal shift binding; calls only at 9.99 µM; Q9HCT0; recombinant FGF22 thermal shift, SYPRO orange fluorescence; percent of sucrose octasulfate shift, DMSO zero; actives 1.5% (n = 340,000);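 active means melting point raised past a set limit in the mean and every replicate; inconclusive means no clear call; three in four hits are not shown here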
Target sequence (Q9HCT0 whole entry, looked up): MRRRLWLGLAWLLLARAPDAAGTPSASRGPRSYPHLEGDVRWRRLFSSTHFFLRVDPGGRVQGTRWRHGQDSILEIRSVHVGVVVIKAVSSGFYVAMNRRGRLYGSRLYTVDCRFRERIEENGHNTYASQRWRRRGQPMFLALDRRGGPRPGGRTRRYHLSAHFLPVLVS
UCH37 DUB inh: inhibitors of human deubiquitinating enzyme UCH37; actives 0.33% (n = 330,000); purified proteasome/UCH37, Ub-AMC cleavage fluorescence; inhibition, % (test concentration not listed);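 active means mean of two replicates above 20%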;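 further: 0% = compound-free wells with enzyme and 100% = wells lacking proteasome; stock transfer was 100 nL into about 20 µL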
Target sequence (Q9Y5K5 whole entry, looked up): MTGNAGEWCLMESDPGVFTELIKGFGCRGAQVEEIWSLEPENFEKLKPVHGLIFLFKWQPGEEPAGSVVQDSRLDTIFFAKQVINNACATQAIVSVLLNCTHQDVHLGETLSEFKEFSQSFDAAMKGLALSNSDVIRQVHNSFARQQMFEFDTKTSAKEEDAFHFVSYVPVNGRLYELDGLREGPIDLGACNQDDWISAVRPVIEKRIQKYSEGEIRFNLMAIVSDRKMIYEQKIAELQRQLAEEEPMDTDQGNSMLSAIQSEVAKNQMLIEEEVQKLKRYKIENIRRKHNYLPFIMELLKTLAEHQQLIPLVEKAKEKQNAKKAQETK
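Reagent: Ub-AMC substrate; assay system: Proteasome-associated human UCH37 deubiquitinase; controls: no-proteasome and no-compound wells; read-out: % inhibition of Ub-AMC cleavage fluorescence; timing: 30 min preincubation with enzyme, 25 min cleavage at room temperature; signal: AMC fluorescence from Ub-AMC cleavage, excitation 355 nm, emission 460 nm; buffer or medium: Tris-HCl pH 7.4 plus ovalbumin, ATP-MgCl2, DTT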
* marks the source's active call; other numbers are inactive results; i = inactive; u = inconclusive; x = no result given.

Order of results: LANA-H2B inh, HNF4A DNA FP, ALR H2O2 inh, B2AR ag, Ecoli growth, FGF22 binding, UCH37 DUB inh
CSc1ncccc1C(=O)OCC(=O)c1[nH]c(C)c(C(C)=O)c1C
  3.0, 1.8, 3, 7, 0.7, i, 1.4
CCN(CC)C(=N)/C(C#N)=N/Nc1ccccc1
  2.7, -3.6, 87*, -7, x, i, x
CCCNC(=O)c1csc2c1CCCCC2
  0.2, -1.7, -27, -7, 0.71, x, 3.1
CCOc1cccc2sc(NN)nc12
  x, 0.8, x, -4, 0.71, i, -0.5
NC(=O)c1ccc(CSc2nc3ccccc3s2)cc1
  -1.7, 1.6, 92*, -4, 0.69, i, 2.0
NC1=NC(=O)C(Cc2ccc(F)cc2)S1 (centres undefined)
  -2.1, 0.6, 0, 12, x, i, x
O=C(NC1CCOC1)c1cc(COc2cccc(C(F)(F)F)c2)on1 (centres undefined)
  -12, -1.1, -16, 1, 0.7, i, 4.3
O=C(COC(=O)C1CCN(S(=O)(=O)c2cccs2)CC1)Nc1ccc(F)c(F)c1F
  x, 1.9, x, 0, 0.7, i, 3.3
CCOC(=O)c1ccccc1OCc1cc(/C=N/NC(=O)c2ccncc2)ccc1OC
  -2.9, -0.2, 0, 17, x, i, x
COc1cccc(NC(=O)CN(C)C(=O)c2cc3c(s2)CCCCC3)c1
  -0.1, 0.8, 7, 6, 0.68, i, 3.9
Cc1cc(C)c(C)c(S(=O)(=O)Nc2ccccc2C(=O)NCCCn2ccnc2)c1C
  x, 0.9, x, 1, 0.7, x, -3.6
Cc1ncsc1CCC(=O)N1CCCC(C(=O)c2ccc3c(c2)OCO3)C1 (centres undefined)
  -3.4, 9.6, -18, -2, 0.68, i, -2.4
CCOC(=O)C1=CN(Cc2cccc(F)c2)S(=O)(=O)N(C)C1c1ccc(C(F)(F)F)cc1 (centres undefined)
  x, 0.6, x, 4, 0.69, i, 2.6
COc1cccc(C(=O)Nc2cccc3cccnc23)c1OC
  2.3, -2.4, -5, 0, 0.71, x, -2.4
COc1ccc(S(=O)(=O)N(C)C[C@H]2Oc3ccc(NS(=O)(=O)c4cn(C)cn4)cc3C(=O)N([C@H](C)CO)C[C@@H]2C)cc1
  x, -1.2, x, -1, 0.72, i, 7.1
O=C(COc1ccccc1)Nn1cnc2ccccc21
  -4.2, 0.4, -52, 6, 0.66, x, 2.3
CCCc1n[nH]c(=O)c2c1nnn2Cc1ccccc1
  3.9, -1.3, -6, 2, 0.66, i, 1.3
CCC(C)Oc1nc(C)cc(C)c1S(=O)(=O)c1ccccc1C (centres undefined)
  3.8, -2.2, x, 0, 0.72, x, 2.5
Cc1nc2cc(-c3ccc(Cl)cc3)nn2c(C)c1CCC(=O)NCc1ccco1
  -0.3, 3.8, 5, -15, 0.75, i, -161
CCC1=NN(C(=O)COc2ccccc2)C(O)(c2ccncc2)C1 (centres undefined)
  0.9, 1.6, 2, 0, 0.66, i, 2.5
CN(CC(=O)Nc1cccc(F)c1)C(=O)CCNC(=O)c1ccc(Br)cc1
  5.7, -1.0, -15, -4, 0.7, i, -1.7
COc1ccc(S(=O)(=O)N2CCCN(CC(=O)Nc3ccc4c(c3)OCO4)CC2)cc1
  -0.9, -5.4, 0, 8, 0.75, x, 2.5
CCOC(=O)C1=C(C)Nc2ccccc2N=C1NC(=O)C(CC)c1ccccc1 (centres undefined)
  -2.7, -2.3, -15, -3, 0.66, i, 0.4
CCOc1ccc(S(=O)(=O)NC(C)C)cc1C(N)=O
  3.6, 1.0, -13, 11, 0.68, i, 5.9
CCCN1Cc2cccc(C(=O)NCCc3cccc(C)c3)c2C1=O
  7.4, -5.5, -3, -10, 0.64, i, -0.7
Cc1noc(C)c1NC(=O)N(C)C[C@@H]1Oc2c(NC(=O)NC(C)C)cccc2C(=O)N([C@@H](C)CO)C[C@@H]1C
  -272, 1.4, 0, 1, 0.71, i, 1.5
COc1ccc(C)cc1NC(=O)CCN1CCCC1
  1.0, -0.8, x, 5, 0.68, x, 2.2
CC(C)C(C(=O)NCC1CCCO1)N(Cc1cccs1)C(=O)CNS(=O)(=O)c1ccccc1 (centres undefined)
  2.3, 0.6, -3, -2, 0.72, i, 1.6
O=C(Cn1nnc(-c2ccccc2F)n1)N1CCCCC1
  1.9, -0.7, 13, 2, 0.67, i, 3.6
Cc1cc2nc(-c3ccc(SCc4ccccc4C#N)nc3)[nH]c2cc1C
  0.8, 2.5, -58, 17, 0.68, i, -27
Cn1c(=NC(=O)c2ccccc2[N+](=O)[O-])sc2cc(S(C)(=O)=O)ccc21
  0.2, 1.5, x, 1, x, x, x
O=C(c1ccc2nc[nH]c2c1)N1CCN(S(=O)(=O)c2cccc(Cl)c2)CC1
  x, -3.1, x, 12, 0.66, i, 2.4
CCN1CCN(c2nc3c(C)cccn3c(=O)c2/C=C(\C#N)S(=O)(=O)c2ccc(C)cc2)CC1
  4.2, 6.9, -6, -6, 0.72, x, -1.3
COCCCNC(=O)CNC(=S)N(Cc1ccccc1)Cc1cccnc1
  -1.9, 2.2, u, 2, 0.7, i, 2.7
O=C(CCSCc1ccc(Cl)cc1)NCCc1ccccc1
  -7.4, -0.9, -3, -11, 0.69, i, 2.3
CCOc1ccc(-n2c(C)cc(/C=C3/C(=N)N4C(=NC3=O)SN=C4S(C)(=O)=O)c2C)cc1
  -10, 4.7, 98*, 2, x, i, -4.2
O=C(CSc1cn(Cc2ccccc2)c2ccccc12)Nc1nccs1
  -4.2, 0.1, -22, -3, 0.82, i, 6.8
CCn1cc(CN2CCC(C(=O)Nc3cccc(-c4cccc(F)c4)c3)CC2)cn1
  -3.4, 1.7, -1, 30, 0.7, i, 0.6
Cc1ccc(S(=O)(=O)N(CC(O)CN2CCCC2)c2ccccc2)cc1 (centres undefined)
  -5.9, -2.4, -3, 0, 0.69, i, 2.6
Cc1nn(Cc2c(F)c(F)c(F)c(F)c2F)c(C)c1NC(=O)c1c(-c2ccccc2)nn(-c2ccccc2)c1C
  -1.6, 3.9, -9, -5, 0.63, x, 2.3
Cc1cn([C@H]2C[C@H](O)[C@@H](CCC(=O)NCCCn3ccnc3)O2)c(=O)[nH]c1=O
  x, 1.0, x, 2, 0.7, i, 2.0
O=C(COC(=O)c1ccc(F)cc1F)Nc1ccc2[nH]c(=O)[nH]c2c1
  2.6, 4.5, -10, -1, 0.7, i, 1.7
COc1ccc2[nH]c3c(c2c1)CC(C)NC3=O (centres undefined)
  2.6, -1.4, -14, 4, 0.62, i, -263
CN(CC(=O)Nc1ccc(Cl)cc1)C(=O)c1cccc(S(=O)(=O)N(C)C)c1
  x, -0.6, x, -1, 0.64, x, 1.6
CCCn1c2c(c(O)c(C(=O)NCc3ccccc3)c1=O)CCCC2
  5.0, -0.3, x, -8, 0.72, x, 0.1
CC(C)CN(CC(C)C)C(=O)CN1c2cccc3cccc(c23)S1(=O)=O
  -1.3, 0.8, x, 0, 0.7, i, -65
O=C(NCC1CCCO1)C(=O)N/N=C/c1c(F)cccc1Cl (centres undefined)
  1.8, 1.2, 1, -3, x, i, x
Cc1ccc(S(=O)(=O)N2CCCCC2)cc1NC(=O)COC(=O)c1cccn1C
  -8.3, 0.3, x, 10, 0.68, i, -1.0
COc1ccccc1NC(=O)c1cc2ccccc2o1
  -4.0, -2.7, -9, -5, 0.69, x, -0.5
CCN(c1ccccc1)S(=O)(=O)c1ccc(OC)c(NC(=O)c2ccc(=O)[nH]c2)c1
  -8.4, -1.3, 2, 3, 0.66, i, 0.5

Next part.
Order of results: LANA-H2B inh, HNF4A DNA FP, ALR H2O2 inh, B2AR ag, Ecoli growth, FGF22 binding, UCH37 DUB inh
C/C(=N/NC(=O)COc1cc(C)ccc1C(C)C)C(=O)O
  -1.6, -2.0, 0, 14, x, i, x
COc1cc(-n2c(=O)c3ccccc3n(Cc3cc(=O)n4ccccc4n3)c2=O)cc(OC)c1OC
  1.2, 0.5, 2, 10, 0.7, i, -43
O=C(CSc1ccc(-c2ccc(F)cc2)nn1)N1CCCc2ccccc21
  1.0, 0.3, -2, -3, x, i, x
Cc1ccc(C(=O)N2CCC(C(=O)NC3CCCCCC3)CC2)cc1
  -4.8, -4.9, -2, -2, 0.68, i, 7.3
O=C(NC(c1ccccc1)c1cc(Cl)c2cccnc2c1O)c1cccnc1 (centres undefined)
  4.0, x, 1, x, x, x, 1.2
Cc1c(C(=O)NC(=S)NCc2cccnc2)oc2ccccc12
  2.3, 3.4, 93*, 4, 0.74, i, 2.6
COc1cc(C(=O)NC(=S)NCc2ccco2)cc(OC)c1OC
  -1.4, 3.2, -6, 4, 0.7, x, -3.0
CCOc1ccccc1C1C2C(=O)N(c3ccccc3)C(=O)C2ON1c1ccccc1 (centres undefined)
  -3.0, 1.3, 2, 2, 0.71, x, 3.9
C/C(=N\NS(=O)(=O)c1ccc(Cl)cc1)c1ccc(NC(=O)c2ccco2)cc1
  -3.8, -0.3, -5, -7, x, i, x
C#CCOCCOCCOCCNc1nc(N2CCN(C(=O)CCCCCCCCCCNC(=O)[C@H](CCCCN)n3cc(CCO)nn3)CC2)nc(N2CCN(C(=O)CCCCCCCCCCNC(=O)[C@H](CCCCN)n3cc(C[C@@H](C)CC)nn3)CC2)n1
  -12, x, -46, x, x, x, 5.3
CCCc1cc(=O)[nH]c(SCC(=O)N2CCN(S(=O)(=O)c3ccc(C)cc3C)CC2)n1
  3.6, 4.7, 7, -2, 0.71, x, 1.9
CCOC(=O)Cc1csc(NC(=O)c2c(-c3c(Cl)cccc3Cl)noc2C)n1
  -7.6, 1.9, 21, 2, 0.66, x, 1.9
NS(=O)(=O)c1cccc(NC(=O)COC(=O)/C=C/c2nc3ccccc3s2)c1
  6.1, -4.8, x, -1, 0.72, i, -3.6
O=c1c2ccccc2nc(SCc2nc3ccccc3s2)n1Cc1ccco1
  -2.4, -0.7, 87*, -4, 0.69, x, 4.2
COc1ccc(S(=O)(=O)Nc2ccc3c(c2)CC(=O)N([C@H](C)CO)C[C@H](C)[C@H](CN(C)C(=O)Nc2ccc4c(c2)OCO4)O3)cc1
  0.3, -0.1, -22, -5, x, i, 4.6
CC(=O)c1ccccc1NC(=O)COC(=O)c1ccc2c(c1)nc(C)n2-c1ccccc1
  -0.4, x, -2, x, 0.67, x, -5.3
Cc1ccc(F)c(NC(=O)c2c(-c3ccccc3)noc2C)c1
  -3.4, 0.2, 1, 3, 0.71, i, 6.0
O=C(NCCCCO)C(F)(F)C(F)(F)C(F)(F)C(=O)NCCCCO
  4.3, -1.6, 3, -4, 0.72, x, 3.9
CSc1ncccc1C(=O)NCc1nnc2ccccn12
  0.6, -0.4, 0, 5, 0.64, i, 0.9
Cc1ccc2nc(Cl)c(C3CC(c4ccco4)=NN3S(C)(=O)=O)cc2c1 (centres undefined)
  -1.0, -0.1, 2, -8, 0.75, i, -1.6
CCCCn1c(N)c(N(CC)C(=O)c2cccc(F)c2)c(=O)[nH]c1=O
  -5.0, 2.8, 0, -4, 0.68, i, -1.5
O=C1COc2ccc(C(=O)COC(=O)/C=C/c3cccc(F)c3)cc2N1
  1.0, 3.6, -15, 9, 0.69, i, 2.9
Cc1cccc(NC(=O)NCCCCc2ccccc2)c1
  4.5, 8.8, -4, -4, 0.7, i, 1.0
Cc1cc(C)n(C2=NS(=O)(=O)c3ccccc32)n1
  -1.0, -2.8, 4, 0, 0.7, x, 1.2
Cn1nc(OC(=O)Nc2cccc(Cl)c2)cc1C(F)(F)F
  3.4, -6.0, -13, 3, 0.67, x, 0.7
Cc1cc(C)c(S(=O)(=O)NCCC2CCCN2C)c(C)c1 (centres undefined)
  0.5, -3.3, 0, 3, 0.72, x, 4.4
Cc1cccc(N=C2NC(=O)CS2)c1
  0.4, -1.0, -20, -1, 0.68, x, 1.6
Cc1noc(C)c1COc1ccc(CC(=O)NCc2ccccc2)cc1
  -2.1, -0.8, -1, 27, 0.64, i, 3.3
Cc1cc(N(CN2CCCC2=O)C(=O)c2ccccc2)no1
  -0.9, 1.0, -5, -4, 0.74, x, 1.1

This is a subset; rates above refer to the full screens.
